Screening results as filed in PubChem.
Env fusion inh: blocks HIV Env-driven cell-cell fusion | inhibition, % at 12.3 µM | actives 1.1% (n = 360,000) | HeLa-JRFL Env/CEM21 cell fusion, luciferase | AID 651610;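 active means mean replicate inhibition score of at least 50 and every replicate individually at or above 50; inconclusive means only one of the two criteria met; inactive means mean below 50 and not all replicates reaching 50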;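 further: 0% = plate neutral controls and 100% = maraviroc near 300 nM; one replicate is shown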
UUG fidelity: modulators of start codon recognition fidelity in yeast; S. cerevisiae UUG-firefly luciferase reporter, luminescence/redox ratio; activity score, % at 18.7 µM; actives 0.13% (n = 350,000);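 active means replicate mean at a twofold rise or more, about +100% in these data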;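 further: firefly luciferase made from a UUG start codon reports start codon fidelity; reporter light over untreated wells divided by growth signal over untreated wells; some hits fall short of that in this replicate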
* hit, by the source's call; u = inconclusive; [ ] = another dose, or the depositor's remark.

SMILES | Env fusion inh | UUG fidelity
COc1ccc(S(=O)(=O)Nc2ccc3c(c2)C(=O)N([C@@H](C)CO)C[C@@H](C)[C@@H](CN(C)C(=O)NC(C)C)OCCCC[C@H](C)O3)cc1 | -10.9[16.7 µM] | 4.5
C[C@@H]1CN([C@@H](C)CO)C(=O)c2cccc(NS(=O)(=O)c3cccs3)c2O[C@@H]1CN(C)CC1CC1 | -28.3[16.7 µM] | -2.0
CC(C)CC#Cc1ccc2c(c1)O[C@@H](CN(C)C(=O)c1ccccc1)[C@H](C)CN([C@H](C)CO)S2(=O)=O | 19.9[16.7 µM] | -3.5
CO[C@@H](CCO)[C@@H](O)c1ccc(O)c(F)c1 | 11.3[16.7 µM] | 21.9
COc1cccc(NC(=O)N(C)C[C@@H]2Oc3ncc(C#Cc4cccnc4)cc3C(=O)N([C@H](C)CO)C[C@@H]2C)c1 | 12.7[16.7 µM] | 4.8
CC(C)C(=O)Nc1ccc2c(c1)C(=O)N(C)[C@H]1CC[C@H](CC(=O)NCCCN(C)C)O[C@H]1CO2 | 20.8[16.7 µM] | -10.1
Cc1ccc(S(=O)(=O)N(C)C[C@@H]2Oc3c(NC(=O)C4CCOCC4)cccc3C(=O)N([C@H](C)CO)C[C@H]2C)cc1 | 12.4[16.7 µM] | -3.4
CCCN(C)C[C@H]1Oc2cc(C#Cc3ccccc3OC)ccc2S(=O)(=O)N([C@H](C)CO)C[C@H]1C | 8.9[16.7 µM] | 13.0
C[C@H](CO)N1C[C@H](C)[C@H](CN(C)S(=O)(=O)c2ccccc2)Oc2ncc(-c3cccc(F)c3)cc2C1=O | 25.7[16.7 µM] | -3.0
Cc1ccc(-c2cnc3c(c2)C(=O)N([C@H](C)CO)C[C@H](C)[C@@H](CN(C)C(=O)c2cccc(F)c2)O3)cc1 | 4.9[16.7 µM] | 6.7
COc1ccc(NC(=O)N(C)C[C@@H]2Oc3ccc(NC(=O)Cn4cnnn4)cc3CC(=O)N([C@H](C)CO)C[C@@H]2C)cc1 | 9.0[16.7 µM] | 13.0
C[C@H]1CN([C@@H](C)CO)C(=O)c2cc(C#Cc3ccc(F)cc3)cnc2O[C@@H]1CN(C)Cc1ccccn1 | -19.7[16.7 µM] | -8.6
C[C@@H]1CN([C@@H](C)CO)C(=O)Cc2cc(NC(=O)Cn3cnnn3)ccc2O[C@@H]1CN(C)Cc1ccc2c(c1)OCO2 | -2.9[16.7 µM] | -3.9
COC(=O)C(CC#Cc1ccc2c(c1)[C@]1(C(=O)N2)[C@H](C(=O)NC[C@H](O)c2ccccc2)[C@H]2C(=O)O[C@H](c3ccccc3)[C@H](c3ccccc3)N2[C@@H]1c1ccccc1OCCO)C(=O)OC | -17.8[16.7 µM] | -14.7
COc1ccc(S(=O)(=O)N(C)C[C@@H]2OCCCC[C@@H](C)Oc3ccc(NC(=O)Nc4ccccc4)cc3C(=O)N([C@@H](C)CO)C[C@H]2C)cc1 | 35.9[16.7 µM] | 9.5
C[C@@H]1CCCCO[C@@H](CN(C)Cc2ccc3c(c2)OCO3)[C@H](C)CN([C@H](C)CO)C(=O)c2cc(NC(=O)Nc3ccc(C(F)(F)F)cc3)ccc2O1 | 3.0[16.7 µM] | 20.3
NCC[C@@H]1CC[C@@H](NC(=O)Cc2ccncc2)[C@@H](CO)O1 | -9.7[16.7 µM] | 4.4
COCC(=O)N(C)C[C@@H]1Oc2ncc(C#Cc3ccc(OC)cc3)cc2C(=O)N([C@@H](C)CO)C[C@@H]1C | 3.3[16.7 µM] | 12.3
CN(C)CC(=O)Nc1ccc2c(c1)[C@H]1C[C@H](CC(=O)NCc3ccncc3)O[C@H](CO)[C@H]1O2 | -13.8[16.7 µM] | -10.5
COc1ccc(S(=O)(=O)N2C[C@@H](O)COC[C@H]3O[C@@H](CC(=O)NCc4ccc(Cl)c(Cl)c4)CC[C@@H]32)cc1 | 29.4[16.7 µM] | 17.4
Cc1ccc(-c2ccc3c(c2)O[C@@H](CN(C)C)[C@@H](C)CN([C@H](C)CO)S3(=O)=O)cc1 | -0.4[16.7 µM] | -6.7
O=C(Nc1ccc2c(c1)[C@@H]1C[C@@H](CC(=O)N3CCc4ccccc4C3)O[C@H](CO)[C@@H]1O2)NC1CCCC1 | 1.0[16.7 µM] | -8.5
COc1ccc(NC(=O)Nc2ccc3c(c2)CC(=O)N([C@H](C)CO)C[C@H](C)[C@H](CN(C)C(=O)Nc2c(C)noc2C)O3)cc1 | 12.2[16.7 µM] | -4.5
C[C@H]1CN([C@@H](C)CO)S(=O)(=O)c2ccc(-c3cncnc3)cc2O[C@@H]1CN(C)C(=O)Cc1ccccc1 | 3.8[16.7 µM] | -11.2
CNC(=O)C[C@H]1CC[C@H]2[C@H](COc3ccc(NS(=O)(=O)c4ccccc4C)cc3C(=O)N2C)O1 | 3.5[16.7 µM] | -1.2
New compounds follow:
SMILES | Env fusion inh | UUG fidelity
COCC(=O)N(C)C[C@@H]1Oc2cc(C#C[C@@H](C)O)ccc2S(=O)(=O)N([C@@H](C)CO)C[C@@H]1C | 1.3[16.7 µM] | 1.1
Cc1ccc(S(=O)(=O)N(C)C[C@H]2Oc3c(NC(=O)Nc4c(C)noc4C)cccc3C(=O)N([C@H](C)CO)C[C@H]2C)cc1 | -23.4[16.7 µM] | -2.9
C[C@@H]1CCCCO[C@H](CN(C)S(=O)(=O)c2ccc(Cl)cc2)[C@H](C)CN([C@@H](C)CO)C(=O)c2cc(NS(C)(=O)=O)ccc2O1 | -62.9[16.7 µM] | 14.2
CC(C)NC(=O)N(C)C[C@@H]1OCCCC[C@@H](C)Oc2ccc(NC(=O)Nc3ccc4c(c3)OCO4)cc2C(=O)N([C@H](C)CO)C[C@@H]1C | -23.6[16.7 µM] | -1.3
C[C@H](CO)N1C[C@H](C)[C@@H](CN(C)Cc2ccc(Oc3ccccc3)cc2)Oc2ccc(NC(=O)C3CC3)cc2C1=O | 4.0[16.7 µM] | 4.3
C[C@H]1CN([C@@H](C)CO)C(=O)Cc2cc(NS(C)(=O)=O)ccc2O[C@H]1CN(C)CC1CC1 | -13.3[16.7 µM] | -4.5
C[C@@H]1CCCCO[C@H](CN(C)C(=O)C2CCCCC2)[C@@H](C)CN([C@@H](C)CO)C(=O)c2cc(NC(=O)CCC(F)(F)F)ccc2O1 | 16.8[16.7 µM] | 35.0
Cc1noc(C)c1NC(=O)Nc1ccc2c(c1)C(=O)N([C@H](C)CO)C[C@@H](C)[C@@H](CN(C)C(=O)NC(C)C)OCCCC[C@@H](C)O2 | -19.7[16.7 µM] | 35.9
C[C@H](CO)N1C[C@H](C)[C@@H](CN(C)Cc2ccncc2)Oc2ncc(C#CC3(O)CCCC3)cc2C1=O | 14.1[16.7 µM] | -10.2
COc1cccc(NC(=O)N[C@H]2CC[C@H](CC(=O)Nc3ccccc3)O[C@@H]2CO)c1 | 8.2[16.7 µM] | -20.8
CC(C)NC(=O)Nc1ccc2c(c1)C(=O)N([C@H](C)CO)C[C@H](C)[C@H](CN(C)S(=O)(=O)c1cccs1)OCCCC[C@@H](C)O2 | 28.4[16.7 µM] | 5.8
N#C[C@@H]1[C@@H](c2ccc(/C=C/c3ccccc3)cc2)[C@@H](CO)N1C(=O)Cc1ccccn1 | -15.5[16.7 µM] | -2.4
C[C@H](CO)N1C[C@H](C)[C@H](CN(C)C)Oc2ncc(-c3cccnc3)cc2C1=O | -23.9[16.7 µM] | -6.0
C[C@H]1CN([C@@H](C)CO)C(=O)Cc2cc(NC(=O)Nc3ccc(F)cc3)ccc2O[C@@H]1CN(C)C(=O)Nc1ccc(C(F)(F)F)cc1 | -23.2[16.7 µM] | -15.0
O=C(C[C@H]1C[C@@H]2c3cc(NS(=O)(=O)c4ccc(F)cc4)ccc3O[C@@H]2[C@@H](CO)O1)NCc1ccc(Cl)cc1 | u | 1.8
Cc1nn(C)cc1NC(=O)C[C@@H]1CC[C@@H]2[C@@H](COc3ccc(NC(=O)C(C)C)cc3C(=O)N2C)O1 | 20.1[16.7 µM] | -10.9
COCC#Cc1cnc2c(c1)C(=O)N([C@H](C)CO)C[C@@H](C)[C@H](CN(C)Cc1ccc3c(c1)OCO3)O2 | -1.6[16.7 µM] | 6.7
COc1ccc(S(=O)(=O)Nc2ccc3c(c2)C(=O)N([C@@H](C)CO)C[C@@H](C)[C@H](CN(C)S(=O)(=O)c2ccc(OC)cc2)O3)cc1 | 4.4[16.7 µM] | 1.6
COc1ccc(CN(C)C[C@@H]2Oc3c(NS(=O)(=O)c4ccc(OC)cc4)cccc3C(=O)N([C@@H](C)CO)C[C@H]2C)cc1 | 23.0[16.7 µM] | 6.9
O=C(C[C@H]1CC[C@@H](NC(=O)Nc2cc(F)ccc2F)[C@@H](CO)O1)NCc1ccc2c(c1)OCO2 | 28.6[16.7 µM] | 1.5
C[C@@H]1CN([C@H](C)CO)C(=O)Cc2cc(NC(=O)CCCCCC(=O)Nc3ccccc3N)ccc2O[C@@H]1CN(C)C(=O)Nc1ccccc1 | 17.1[16.7 µM] | 19.2
C[C@@H]1CN([C@H](C)CO)C(=O)c2cc(NC(=O)Nc3cccc4ccccc34)ccc2O[C@@H](C)CCCCO[C@H]1CN(C)Cc1ccc(C(=O)O)cc1 | 4.3[16.7 µM] | 8.1
C[C@H](CO)N1C[C@H](C)[C@@H](CN(C)S(=O)(=O)c2cn(C)cn2)Oc2cc(C3=CCCC3)ccc2S1(=O)=O | -2.2[16.7 µM] | -8.3
C[C@@H]1CN([C@H](C)CO)C(=O)c2cc(NS(=O)(=O)c3ccccc3)ccc2O[C@@H]1CN(C)C(=O)Nc1ccc2c(c1)OCO2 | -9.2[16.7 µM] | 3.4
C[C@H]1CN([C@@H](C)CO)S(=O)(=O)c2ccc(C#CC3CC3)cc2O[C@@H]1CN(C)Cc1cccnc1 | -2.9[16.7 µM] | 3.3

Looked up above:
Value of COc1cccc(NC(=O)N[C@H]2CC[C@H](CC(=O)Nc3ccccc3)O[C@@H]2CO)c1 in UUG fidelity: -20.8
Value of COCC(=O)N(C)C[C@@H]1Oc2cc(C#C[C@@H](C)O)ccc2S(=O)(=O)N([C@@H](C)CO)C[C@@H]1C in Env fusion inh: 1.3[16.7 µM]

The results go on:
SMILES | Env fusion inh | UUG fidelity
O=C(NCC[C@@H]1CC[C@H](NS(=O)(=O)c2ccccc2F)[C@H](CO)O1)c1ccc(F)cc1 | 2.9[16.7 µM] | 6.0
COCCNC(=O)C[C@H]1C[C@H]2c3cc(NC(=O)CC4CC4)ccc3O[C@H]2[C@@H](CO)O1 | -10.2[16.7 µM] | 0.0
CNC(=O)C[C@@H]1CC[C@H]2[C@H](COc3ccc(NC(=O)c4ccc(C(F)(F)F)cc4)cc3C(=O)N2C)O1 | 18.7[16.7 µM] | 0.0
O=C(C[C@@H]1CC[C@H]2[C@@H](COC[C@H](O)CN2Cc2cc(F)cc(F)c2)O1)NC1CCCC1 | 13.3[16.7 µM] | -8.4
C[C@@H]1CCCCO[C@H](CN(C)C)[C@@H](C)CN([C@@H](C)CO)C(=O)c2cc(NC(=O)Cc3ccccc3)ccc2O1 | -14.0[16.7 µM] | 10.3
CCCN(C)C[C@H]1Oc2cc(C#Cc3ccccc3)ccc2S(=O)(=O)N([C@H](C)CO)C[C@H]1C | -86.2[16.7 µM] | 16.4
COCCNC(=O)C[C@H]1CC[C@@H](NC(=O)NC2CCCC2)[C@H](CO)O1 | 4.4[16.7 µM] | -4.6
Cc1ccccc1S(=O)(=O)NCC[C@@H]1CC[C@@H](NC(=O)C2CCC2)[C@H](CO)O1 | -1.1[16.7 µM] | -4.9
C[C@@H]1CN([C@H](C)CO)C(=O)c2cc(NS(=O)(=O)c3ccc(Cl)cc3)ccc2O[C@@H](C)CCCCO[C@@H]1CN(C)C(=O)C1CCCCC1 | -52.6[16.7 µM] | -3.7
COc1ccc(S(=O)(=O)N2C[C@H](O)COC[C@H]3O[C@H](CC(=O)N(C)C)CC[C@@H]32)cc1 | -6.6[16.7 µM] | -10.6
O=C(O)C[C@H]1C[C@@H]2c3cc(NC(=O)CC4CC4)ccc3O[C@@H]2[C@@H](CO)O1 | -9.4[16.7 µM] | 3.3
O=C(C[C@H]1CC[C@H](NC(=O)Nc2cc(F)ccc2F)[C@@H](CO)O1)Nc1ccccc1 | 4.7[16.7 µM] | -6.4
COc1ccc(NC(=O)Nc2ccc3c(c2)C(=O)N([C@H](C)CO)C[C@@H](C)[C@H](CN(C)C(=O)NC2CCCCC2)OCCCC[C@H](C)O3)cc1 | 12.4[16.7 µM] | -3.8
COCC(=O)N(C)C[C@@H]1Oc2cc(-c3ccncc3)ccc2S(=O)(=O)N([C@H](C)CO)C[C@@H]1C | -16.8[16.7 µM] | -13.0
CCNC(=O)C[C@@H]1CC[C@@H]2[C@H](COc3ccc(NC(=O)Nc4cccc(OC)c4)cc3C(=O)N2C)O1 | -14.1[16.7 µM] | -1.9

Given tab-delimited: 5 of the compounds above.
SMILES	Env fusion inh	UUG fidelity
COc1ccc(S(=O)(=O)N2C[C@H](O)COC[C@H]3O[C@H](CC(=O)N(C)C)CC[C@@H]32)cc1	-6.6[16.7 µM]	-10.6
O=C(O)C[C@H]1C[C@@H]2c3cc(NC(=O)CC4CC4)ccc3O[C@@H]2[C@@H](CO)O1	-9.4[16.7 µM]	3.3
O=C(C[C@H]1CC[C@H](NC(=O)Nc2cc(F)ccc2F)[C@@H](CO)O1)Nc1ccccc1	4.7[16.7 µM]	-6.4
COc1ccc(NC(=O)Nc2ccc3c(c2)C(=O)N([C@H](C)CO)C[C@@H](C)[C@H](CN(C)C(=O)NC2CCCCC2)OCCCC[C@H](C)O3)cc1	12.4[16.7 µM]	-3.8
COCC(=O)N(C)C[C@@H]1Oc2cc(-c3ccncc3)ccc2S(=O)(=O)N([C@H](C)CO)C[C@@H]1C	-16.8[16.7 µM]	-13.0

An excerpt, so the mix of outcomes need not match the whole.
